ClpP mod = qHTS Assay for Activators of ClpP | ATP-dependent Clp protease proteolytic subunit (Bacillus subtilis (strain 168)), P80244 | Potency, µM (series often up to 57.5 µM), inactives show top-dose activity change, negative = active | purified B. subtilis ClpP, FRET peptide cleavage, 20 min | 340,000 compounds, 1.9% hits | AID 651965, 2013; active = well fitted falling curve with a large enough effect; inconclusive = small, poorly fitted or top-dose-only effect; inactive = no such curve, though single readings can be large or run the other way; further: potency means the concentration at half of the fitted maximal effect; the source files actives as falling curves though it sought activators and does not explain the sign; nearly all actives have a fitted effect of over 65% in size; many hits overshoot -100%
Target sequence (P80244 whole entry, looked up): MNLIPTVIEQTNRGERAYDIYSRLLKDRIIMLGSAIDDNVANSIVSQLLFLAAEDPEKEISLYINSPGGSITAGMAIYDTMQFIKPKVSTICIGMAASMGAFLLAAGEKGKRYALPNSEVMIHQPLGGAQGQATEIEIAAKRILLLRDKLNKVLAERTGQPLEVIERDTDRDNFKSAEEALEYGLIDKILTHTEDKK
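Buffer: 100 mM Tris/HCl pH8, 100 mM KCl, 0.05% low protease BSA, 2.5% glycerol, 0.01% Tween-20. ClpP 10 microg/mL final; 20 min RT; delta FRET normalized to ADEP and DMSO controls.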
TRPML1 agonist = agonists of human TRPML1 channel; Q9GZU1; TRPML1-expressing cells, Ca2+ dye fluorescence, FDSS; host cell line not named in the record; reference of the full effect not given here; activation, % (no concentration beside the values); 410,000 compounds, 0.12% hits; in the data active = activation above about 50%; inconclusive = about 30% to 50%; inactive = below about 30%; further: 0% is about no effect; the text of the record puts the active cut at 80%
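Agonist activity was taken from a 110 s kinetic Ca2+ dye read on the FDSS after pinning compounds onto TRPML1-DL cells. The cells were seeded at 1,500/well with Tet inducer, incubated about 16 h, then dye-loaded at room temperature.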
Starred values were filed as active, the others as inactive; ? = inconclusive. Only part of the results is shown; the hit share may differ from the screen's.

(1) CCCCCCCCCCCCCCCC[n+]1ccc(C)c2ccccc21
  ClpP mod = -15.6%	TRPML1 agonist = 0.1
(2) O=C(C[n+]1ccncc1)c1ccc(Br)cc1
  ClpP mod = -3.6%	TRPML1 agonist = -0.2
(3) O=C(c1ccccc1)C(c1ccccc1)[n+]1csc2ccccc21 (stereo unspecified)
  ClpP mod = -1.1%	TRPML1 agonist = -0.4
(4) O=S1(=O)CCOC[C@H](c2ccccc2)N1Cc1ccc(Cl)c(Cl)c1
  ClpP mod = 1.3%	TRPML1 agonist = -0.1
(5) Cc1cc(N(C)C)c(C)cc1/C=C/c1ccnc2ccccc12
  ClpP mod = 1.5%	TRPML1 agonist = 13.9
(6) O=C(CNC(=O)c1cccnc1)c1ccc(F)cc1
  ClpP mod = 0.4%	TRPML1 agonist = -0.4
(7) Cc1cc2nccc(C)c2cc1C
  ClpP mod = -12.1%	TRPML1 agonist = 0.0
(8) C(=C\c1ccnc2ccccc12)/c1ccc(N2CCNCC2)cc1
  ClpP mod = -0.2%	TRPML1 agonist = 0.6
(9) Cc1c(CCO)sc[n+]1CC(=O)c1ccccc1
  ClpP mod = 1.1%	TRPML1 agonist = 0.3
(10) Cc1csc(C)[n+]1CCC1CCCCC1
  ClpP mod = -1.3%	TRPML1 agonist = -0.5
(11) O=C(C[n+]1ccncc1)c1cccc([N+](=O)[O-])c1
  ClpP mod = 1.4%	TRPML1 agonist = -0.2
(12) O=C(C[n+]1cccc(Br)c1)c1ccc(F)cc1
  ClpP mod = 0.2%	TRPML1 agonist = -0.1
(13) CN(C)c1ccc(/C=C/c2ccnc3ccc(F)cc23)cc1
  ClpP mod = -14.6%	TRPML1 agonist = 23.5
(14) O=C(C[N+]12CCCc3cccc(c31)CCC2)c1ccc2ccccc2c1
  ClpP mod = -21.4%	TRPML1 agonist = 0.4
(15) CCCOC(=O)C1=C(C)CS[C@@H]2[C@H](NC(=O)COc3ccccc3)C(=O)N12
  ClpP mod = -14.2%	TRPML1 agonist = -0.5

Entries of single compounds, quoted from the list. Order of values: ClpP mod	TRPML1 agonist
O=C(CNC(=O)c1cccnc1)c1ccc(F)cc1 is listed as 0.4%	-0.4
C(=C\c1ccnc2ccccc12)/c1ccc(N2CCNCC2)cc1 is listed as -0.2%	0.6
Cc1c(CCO)sc[n+]1CC(=O)c1ccccc1 is listed as 1.1%	0.3
Cc1cc(N(C)C)c(C)cc1/C=C/c1ccnc2ccccc12 is listed as 1.5%	13.9
Cc1cc2nccc(C)c2cc1C is listed as -12.1%	0.0

The main list resumes, starting 3 compounds before the break.
(13) CN(C)c1ccc(/C=C/c2ccnc3ccc(F)cc23)cc1
  ClpP mod = -14.6%	TRPML1 agonist = 23.5
(14) O=C(C[N+]12CCCc3cccc(c31)CCC2)c1ccc2ccccc2c1
  ClpP mod = -21.4%	TRPML1 agonist = 0.4
(15) CCCOC(=O)C1=C(C)CS[C@@H]2[C@H](NC(=O)COc3ccccc3)C(=O)N12
  ClpP mod = -14.2%	TRPML1 agonist = -0.5
(16) c1ccc2c(c1)CCCN2
  ClpP mod = -1.0%	TRPML1 agonist = -0.4
(17) Cc1ccc2c(c1)ncc[n+]2CC(=O)c1ccc(F)cc1
  ClpP mod = -12.3%	TRPML1 agonist = 0.0
(18) CN(C)C1CCC(CC2CCc3ccccc32)CC1 (stereo unspecified)
  ClpP mod = ?	TRPML1 agonist = -0.7
(19) C[C@H](NC(=O)OC(C)(C)C)C(=O)c1ccco1
  ClpP mod = -2.2%	TRPML1 agonist = 0.0
(20) Cc1[nH]c2ccccc2c1/C=C/c1ccnc2ccccc12
  ClpP mod = 1.5%	TRPML1 agonist = 13.0
(21) CCc1ccc(C=O)cc1
  ClpP mod = -5.4%	TRPML1 agonist = -0.6
(22) O=C(C[n+]1ccccc1)c1cccc([N+](=O)[O-])c1
  ClpP mod = 0.9%	TRPML1 agonist = -0.7
(23) c1cnc2[nH]ccc2c1
  ClpP mod = -7.2%	TRPML1 agonist = -0.4
(24) O=C(Nc1ccccc1)[C@@H]1CC=C[C@@H]2CCN(C3CC3)C(=O)[C@@H]21
  ClpP mod = -1.3%	TRPML1 agonist = -0.7
(25) Cc1ccnc2c(Cl)c(Cl)ccc12
  ClpP mod = -0.4%	TRPML1 agonist = 0.0
(26) O=C(O)c1cccs1
  ClpP mod = -0.7%	TRPML1 agonist = -0.6
(27) Cc1ccc2ncc(C)c(/C=C/c3ccc(N(C)C)cc3)c2c1
  ClpP mod = 0.6%	TRPML1 agonist = 10.9
(28) Cc1cc2c(cc1C)N[C@]1(C[C@H]3CCCC(=O)N4CC[C@@H](C1)[C@@H]34)C(=Nc1ccccc1C)N2
  ClpP mod = -2.1%	TRPML1 agonist = -1.3
(29) CC(C)CC(=O)N1C/C=C\C[C@@H](c2ccc(Cl)cc2)N(Cc2ccc(Cl)cc2)C(=O)[C@@H]1Cc1ccccc1
  ClpP mod = 0.6%	TRPML1 agonist = -0.4
(30) COC(=O)[C@@H]1CCCN1S(=O)(=O)Cc1ccccc1
  ClpP mod = 1.1%	TRPML1 agonist = -0.2

#31 CC[N+](CC)(CC)c1ccc(/C=C/c2ccnc3ccccc23)cc1
#32 CCCCCCCCCCCCCCCCCCN(CCCCCCCCCCCCCCCCCC)c1ccc(/C=C/c2ccnc3ccccc23)cc1
#33 Nc1ccc(/C=C/c2ccnc3ccccc23)c(N)c1
#34 CN(C)c1ccc(/C=C/c2cc(Cl)nc3ccccc23)cc1

assay / entry,31,32,33,34
ClpP mod,0.7%,1.8%,-1.3%,?
TRPML1 agonist,-0.4,-0.1,6.1,-0.5

Quoted from the listing.
For ClpP mod, #16 is entered as -1.0%
For ClpP mod, #14 is entered as -21.4%
For ClpP mod, #2 is entered as -3.6%

From compound 28 up to 31, copied from above:
#28 Cc1cc2c(cc1C)N[C@]1(C[C@H]3CCCC(=O)N4CC[C@@H](C1)[C@@H]34)C(=Nc1ccccc1C)N2
#29 CC(C)CC(=O)N1C/C=C\C[C@@H](c2ccc(Cl)cc2)N(Cc2ccc(Cl)cc2)C(=O)[C@@H]1Cc1ccccc1
#30 COC(=O)[C@@H]1CCCN1S(=O)(=O)Cc1ccccc1
#31 CC[N+](CC)(CC)c1ccc(/C=C/c2ccnc3ccccc23)cc1

assay / entry,28,29,30,31
ClpP mod,-2.1%,0.6%,1.1%,0.7%
TRPML1 agonist,-1.3,-0.4,-0.2,-0.4

Assay outcomes as filed in PubChem BioAssay.
